GIRK2 act: activators of human GIRK2 potassium channels | P48051 | HEK293-GIRK2 thallium flux, Thallos fluorescence | calls only for hits at 25 µM | 63,000 compounds, 0.05% hits | AID 1259325;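 active means among the strongest 0.2% of first-round signals and kept after retests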;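 further: first round at about 10 µM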
Target sequence (P48051 whole entry, looked up): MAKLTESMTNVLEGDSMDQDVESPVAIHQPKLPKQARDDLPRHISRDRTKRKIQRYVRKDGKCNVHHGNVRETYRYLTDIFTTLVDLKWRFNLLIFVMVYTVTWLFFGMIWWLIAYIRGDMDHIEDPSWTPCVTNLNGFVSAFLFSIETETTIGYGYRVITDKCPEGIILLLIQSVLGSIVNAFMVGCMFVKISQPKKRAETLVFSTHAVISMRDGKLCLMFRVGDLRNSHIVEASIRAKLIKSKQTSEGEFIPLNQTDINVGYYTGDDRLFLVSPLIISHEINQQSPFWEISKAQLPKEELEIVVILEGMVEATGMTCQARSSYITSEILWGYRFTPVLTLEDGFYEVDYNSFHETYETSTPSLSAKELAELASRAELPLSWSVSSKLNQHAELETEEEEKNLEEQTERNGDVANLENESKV
Calls only; i = inactive. These rows are one share of the data; rates above refer to the full screens.

| structure | GIRK2 act |
| --- | --- |
| COc1ccc(C)cc1N1CCn2c1nc1c2c(=O)[nH]c(=O)n1C | i |
| O=C(/C=C/c1ccco1)NCc1nc(-c2ccccc2)no1 | i |
| Cc1cc(F)ccc1S(=O)(=O)NCC1(c2ccccc2)CCOCC1 | i |
| Cc1cc(C(=O)N2CCC(c3nnc(-c4ccco4)s3)CC2)no1 | i |
| CC(C)c1ccc(OCC(=O)N2CCC(Cn3ccnc3)CC2)cc1 | i |
| COc1cccc(-c2ccc(=O)n(Cc3nc(-c4ccc(OC)c(OC)c4)no3)n2)c1 | i |
| CCOC(=O)c1cn(CC(=O)Nc2ccc(F)c(C)c2)c2nc(C)ccc2c1=O | i |
| O=C(c1cccc(C(F)(F)F)c1)N1CCN(c2cc(-n3cccn3)ncn2)CC1 | i |
| O=C(NCC(Cc1cccc(F)c1)N1CCCC1=O)C1CCCC1 (stereo not given) | i |
| O=C(Nc1nc2c(s1)CN(C(=O)c1ccc3ncsc3c1)CC2)c1ccco1 | i |
| CC(C)OCCCNc1nc2c(c(=O)n(Cc3ccccc3)c(=O)n2C)n1C | i |
| COCCn1c(N2CCN(Cc3ccccc3C)CC2)nc2c1c(=O)[nH]c(=O)n2C | i |
| O=C(Nc1ccccn1)c1c[nH]c2c(C(F)(F)F)cccc2c1=O | i |
| COc1ccc(OCc2noc(CNC(=O)Cc3c[nH]c4ccccc34)n2)cc1 | i |
| COC(=O)C1c2ccsc2CCN1C(=O)c1ccc(Cl)s1 (stereo not given) | i |
| O=C(Cc1cccs1)N1CCC(c2nnc(-c3ccco3)o2)CC1 | i |
| COc1ccc(NC(=O)c2cn(CC(O)c3cccc(Cl)c3)nn2)cc1Cl (stereo not given) | i |
| COc1ccccc1N1CCN(Cc2cc(=O)oc3cc(C)c(C)cc23)CC1 | i |
| CCCC(=O)Nc1sc2c(c1-c1nc3ccccc3s1)CCN(C(C)=O)C2 | i |
| O=C(CSc1nnc(Cn2ccc(=O)[nH]c2=O)o1)Nc1nc2ccc(F)cc2s1 | i |
| Cc1ccc(NC(=O)Cn2c(C)nc3c(c2=O)CN(Cc2ccccc2)CC3)cc1F | i |
| Cn1nc(-c2ccc(F)cc2)cc1C(=O)Nc1ccc2c(c1)CN(C(=O)C1CC1)CC2 | i |
| CSc1cccc(NC(=O)Cn2cc(C(=O)N3CCCC3)c(=O)c3ccc(C)nc32)c1 | i |
| CCOc1ccccc1CNC(=O)CCn1cnc2c([nH]c3ccc(C)cc32)c1=O | i |

Molecules shown so far that have a furan ring, fused or not (four):
| structure | GIRK2 act |
| --- | --- |
| O=C(/C=C/c1ccco1)NCc1nc(-c2ccccc2)no1 | i |
| Cc1cc(C(=O)N2CCC(c3nnc(-c4ccco4)s3)CC2)no1 | i |
| O=C(Nc1nc2c(s1)CN(C(=O)c1ccc3ncsc3c1)CC2)c1ccco1 | i |
| O=C(Cc1cccs1)N1CCC(c2nnc(-c3ccco3)o2)CC1 | i |

Remaining list, next part:
| structure | GIRK2 act |
| --- | --- |
| COC(=O)c1ccccc1NC(=O)c1nc(S(C)(=O)=O)ncc1Cl | i |
| CN(C)c1ncc(NC(=O)c2c(F)cccc2F)cn1 | i |
| CC(C)OC(=O)C(C#N)c1nc2ccccc2nc1N1CCN(c2ccccc2)CC1 (stereo not given) | i |
| COc1cccc(CSc2nc(C)c(CC(=O)NCc3ccc(F)cc3)c(=O)[nH]2)c1 | i |
| COCCn1c(C(=O)Nc2ccc(OC)cc2OC)cc2c(=O)n(C)c(=O)n(C)c21 | i |
| COc1ccc(NC(=O)CCSc2cc(C)c3ccccc3n2)cc1 | i |
| CS(=O)(=O)N1CCN(CCNC(=O)c2ccc(=O)[nH]c2)CC1 | i |
| COc1cc(CNC(=O)c2cc(OCc3ccccc3)no2)cc(OC)c1OC | i |
| O=C(NCC1CCCCC1)C1CCN(c2ncccc2-c2nc(-c3ccccc3)no2)CC1 | i |
| Cc1oc(-c2ccc(OC(C)C)cc2)nc1Cn1c(=O)n(CC2CCCO2)c(=O)c2ccccc21 (stereo not given) | i |
| COc1ccc(Cn2c(C3CCCCC3)nc3oc4ccccc4c(=O)c3c2=O)cc1 | i |
| Cc1nn(C(C)(C)C)c(OC(=O)c2ccccc2C(F)(F)F)c1S(=O)(=O)c1ccccc1 | i |
| COc1ccc(C)cc1NC(=O)Cn1cnc2sc(-c3nc(-c4ccccc4)no3)c(C)c2c1=O | i |
| CSc1ccccc1C(=O)NC(C)Cc1cccs1 (stereo not given) | i |
| COc1ccc(-c2csc(Nc3ccc(Br)cn3)n2)cc1OC | i |
| COc1ccc(CCNC(=O)NC(C)Cc2ccco2)cc1 (stereo not given) | i |
| O=C(CSc1nnc(N2CCN(c3ccc(F)cc3)CC2)s1)Nc1nccs1 | i |
| COc1ccccc1CCNC(=O)CC1CCCCN1S(=O)(=O)c1ccc(F)cc1 (stereo not given) | i |
| COc1ccc(NC(=O)Cn2ccn(-c3cccc(Cl)c3)c(=O)c2=O)cc1OC | i |
| O=C(NCCCN1CCOC(c2ccccc2)C1)Nc1ccccc1Cl (stereo not given) | i |
| Cc1cc(CCNC(=O)c2sc(-n3cccc3)nc2C)on1 | i |
| COc1ccc(OC)c(-c2ccc(N3CCN(S(C)(=O)=O)CC3)nn2)c1 | i |
| COc1ccc(N2CC(NC(=O)c3ccccc3C(F)(F)F)CC2=O)cc1 (stereo not given) | i |
| Cc1cc(C(F)(F)F)nc(CCNC(=O)Nc2cccs2)n1 | i |
| COc1ccc(C2NC(=O)NC(C)=C2C(=O)Nc2ccc(F)cc2)cc1 (stereo not given) | i |
| O=C(NCC(=O)c1cccs1)C1=Cc2cc(Br)ccc2OC=C1 | i |
| Cc1ccc(C)c2sc(N(C)CC(=O)NCCSc3nncn3C)nc12 | i |
| CCOC(=O)CCC(=O)N1CCCC(c2nnc(Cc3ccc(F)cc3)o2)C1 (stereo not given) | i |
| NC(=O)c1ccccc1OCC#CCNC(=O)Cc1cccs1 | i |
| OC(COc1cccc2ccccc12)CN1CCOCC1 (stereo not given) | i |
| O=C(Cn1c(=O)oc2ccccc21)N1CC(c2nc(-c3ccc[nH]c3=O)no2)C1 | i |
| COc1cc2c(=O)nc3n(c2cc1OC)CC/C3=C/c1ccc(C)cc1 | i |
| CCN(CC)CCOC(=O)C1(C2CCCCC2)CCCCC1 | i |
| COCc1nc2ccccc2n1CC(N)=O | i |
| COc1cccc(OCC(=O)c2ccc(O)cc2O)c1 | i |
| COc1ccc(CNS(=O)(=O)c2cn(C)c(=O)n(C)c2=O)cc1 | i |

Nothing new here: 5 of the compounds above.
| structure | GIRK2 act |
| --- | --- |
| COc1cc2c(=O)nc3n(c2cc1OC)CC/C3=C/c1ccc(C)cc1 | i |
| CCN(CC)CCOC(=O)C1(C2CCCCC2)CCCCC1 | i |
| COCc1nc2ccccc2n1CC(N)=O | i |
| COc1cccc(OCC(=O)c2ccc(O)cc2O)c1 | i |
| COc1ccc(CNS(=O)(=O)c2cn(C)c(=O)n(C)c2=O)cc1 | i |

Next part:
| structure | GIRK2 act |
| --- | --- |
| C=CCOc1ccc(C2c3c(oc4ccc(C)cc4c3=O)C(=O)N2c2nccs2)cc1 (stereo not given) | i |
| COc1ccccc1-c1c(C(F)(F)F)oc2cc(OC(=O)c3cccs3)ccc2c1=O | i |
| O=C(CN1CC(c2nc(-c3ncccn3)no2)C1)Nc1ccc2c(c1)OCO2 | i |
| O=C(CN1CCN(CC(=O)c2ccco2)CC1)Nc1ccccc1F | i |
| CN(CCO)CC1COCCN1C(=O)C1(c2cccs2)CCCC1 (stereo not given) | i |
| COc1ccccc1/C=C/c1nc(C#N)c(N2CCN(C(=O)c3ccccc3F)CC2)o1 | i |
| Cc1[nH]c(=O)n(C)c(=O)c1CCC(=O)Nc1ccccc1C(F)(F)F | i |
| COc1ccc(F)cc1C(=O)c1cnc(NC2CCN(S(C)(=O)=O)CC2)nc1N | i |
| CNC(=O)Cc1ccc(-n2c(=O)c3ccccc3n(CC(=O)Nc3cccc(Cl)c3)c2=O)cc1 | i |
| COc1ccc(OCC(O)CN2CCN(Cc3ccc4c(c3)OCO4)CC2)cc1 (stereo not given) | i |
| CCOC(=O)N1CCN(c2cc(-c3ccccc3)ncn2)CC1 | i |
| O=C(CCSc1ccccc1)NCC1CCN(C(=O)Oc2ccccc2)CC1 | i |
| C[n+]1ccc(/C=C/c2c[nH]c3ccccc23)cc1 | i |
| Cc1cc(NS(=O)(=O)c2ccc(NC(=O)C3CCN(c4ccc(=O)n(C)n4)CC3)cc2)nc(C)n1 | i |
| CSc1cccc2sc(N3CCN(C(=O)CCCS(=O)(=O)Cc4ccccc4)CC3)nc12 | i |
| O=C(c1ccc2c(c1)OCO2)N1CCN(Cc2nnnn2-c2ccc(F)cc2)CC1 | i |
| COc1ccccc1/C=C/C=C1\Oc2cc(OC(C)=O)ccc2C1=O | i |
| CCn1c(=O)c(C(=O)Nc2ccc(F)cc2F)c(O)c2sccc21 | i |
| Cc1c(C(=O)N2CCc3nc(NC(=O)C4CCCO4)sc3C2)cnn1-c1ccccc1 (stereo not given) | i |
| O=C(CCC1=NNC2C3CC(c4ccc(F)cc4)NN3C=CN12)N1CCN(c2ccccn2)CC1 (stereo not given) | i |
| O=C1CC2(CCCC2)CC(=O)N1CCCCN1CCN(c2ncccn2)CC1 | i |
| Cc1cc(C)cc(-n2nnc3c(=O)n(CC(=O)N4CCCc5ccccc54)cnc32)c1 | i |
| COc1ccccc1NC(=O)CN1CCC(c2nc(-c3ccc(F)cc3)no2)CC1 | i |
| N#CC1C(=N)OC2=C(C(=O)CCC2)C1c1ccc2noc(-c3ccccc3)c2c1 (stereo not given) | i |
| COc1ccccc1OCCCN1C(=O)C(O)(CC(C)=O)c2cccc(C)c21 (stereo not given) | i |
| CSc1nc2n(n1)C(c1ccc(C)o1)C(C(=O)Nc1ccccc1)=C(C)N2 (stereo not given) | i |
| COc1ccc(S(=O)(=O)N2CCCCC2CC(=O)NCc2cccnc2)cc1 (stereo not given) | i |
| CCc1c(C)[nH]c2c1C(=O)C(CN1CCOCC1)CC2 (stereo not given) | i |
| O=C(Nc1ccc2c(c1)Cc1ccccc1-2)c1ccc(-n2cccn2)nn1 | i |
| Cn1c(C2CCC(CNC(=O)Cn3ccc4ccccc43)CC2)nc2ccccc21 (stereo not given) | i |
| COc1cccc(C(=O)Nc2nnc(-c3ccc(C)cc3C)o2)c1 | i |
| COc1ccc(C(=O)Nc2cc3c4c(c2)CCN4C(=O)CC3)cc1 | i |
| COC(=O)c1ccccc1NC(=O)c1ccc(-n2nncc2C)cc1 | i |
| CCOC(=O)CN1N=C(c2ccccc2)Cn2c1nc1c2c(=O)n(CC(=O)OCC)c(=O)n1C | i |
| O=C(Cn1nc2c(SCc3ccccc3)nccn2c1=O)NCc1ccccc1 | i |
| CCC(C(=O)Nc1c2c(nn1CC(=O)NCc1ccco1)CSC2)c1ccccc1 (stereo not given) | i |
| Cc1csc(NC(=O)c2cc(=O)c(OCc3ccccc3)c[nH]2)n1 | i |
| Cc1cc(NC(=O)C2c3ccccc3Oc3ccccc32)ccc1N1CCCC1=O | i |
| Nc1c(C(=O)c2cccc(-c3ccncc3)c2)cnn1-c1ccc(F)cc1F | i |
| Cc1nc2ccc(NC(=O)c3cc4ccccc4oc3=O)cc2c(=O)n1-c1ccc(Cl)cc1 | i |
| Cc1csc(COc2ccc(C(=O)N3CCNC(=O)C3)cc2)n1 | i |
| O=C(NC1CCN(C(=O)c2cc(-c3ccccc3)n[nH]2)CC1)C1CCCCC1 | i |
| CC(=O)N1CCc2cc(S(=O)(=O)NCCCn3ncccc3=O)ccc21 | i |
| Cc1cc(N2C(=O)C(=O)C(=C(O)c3ccccc3)C2c2ccc(F)cc2)no1 (stereo not given) | i |
| CCOC(=O)N(Cc1ccsc1)C1CC1 | i |
| O=c1c(=O)n(-c2ccc(Cl)cc2)ccn1Cc1nc(-c2ccc3c(c2)OCO3)no1 | i |
| COc1ccc(Cl)cc1C(=O)N1CCN(Cc2ccsc2)CC1 | i |
| CCOC(=O)C1=C(C)NC(C)=C(C(=O)OCC)C1c1ccc(Cl)cc1 | i |

Random excerpt: 2 records from the list.
| structure | GIRK2 act |
| --- | --- |
| CCN(CC)CCOC(=O)C1(C2CCCCC2)CCCCC1 | i |
| CCOC(=O)c1cn(CC(=O)Nc2ccc(F)c(C)c2)c2nc(C)ccc2c1=O | i |

The list goes on.
| structure | GIRK2 act |
| --- | --- |
| CCc1ccc(S(=O)(=O)N2CCC(Oc3ccc(C#N)cn3)CC2)s1 | i |
| COc1ccc(C)cc1NC(=O)C(=O)NCC(C)(O)CCc1ccccc1 (stereo not given) | i |
| Cc1ccc(CNC(=O)Cn2cc(S(=O)(=O)N3CCCC3)ccc2=O)cc1 | i |
| O=C(c1ccc2ncsc2c1)N1CCC(c2nnc(-c3ccco3)o2)CC1 | i |
| CCn1c(SCC(=O)NCc2cccc(OC)c2)nc2c(-c3ccccc3)c[nH]c2c1=O | i |
| O=C(NCc1n[nH]c(=O)c2ccccc12)c1cc(Cl)ccc1[N+](=O)[O-] | i |
| COc1ccccc1N1CCN(c2ccnc(SCC(=O)Nc3cccc(C)c3C)n2)CC1 | i |
| O=C(CN1CCN(C(=O)Nc2cccs2)CC1)c1ccco1 | i |
| c1ccc2nc3c(nc2c1)c1ccccc1n3Cc1nc2ccccc2o1 | i |
| COC(=O)C1=CO[C@@H](O[C@@H]2O[C@H](CO)[C@@H](O)[C@H](O)[C@H]2O)[C@H]2[C@@H]1C=CC21C=C([C@H](C)OC(=O)/C=C/c2ccc(O[C@@H]3O[C@H](CO)[C@@H](O)[C@H](O)[C@H]3O)cc2)C(=O)O1 (stereo not given in full) | i |
| CCOC(=O)Nc1nc2c(s1)CN(S(=O)(=O)c1cc(C)ccc1C)CC2 | i |
| Cc1ccccc1C(=O)NC1CCCC(OC(=O)Nc2ccccc2)C1 (stereo not given) | i |
| Cc1c(Cl)cccc1NC(=O)Cn1c(=O)n(CC(N)=O)c(=O)c2oc3ccccc3c21 | i |
| Cc1cc(NC(=O)c2ccc3c(c2)OCCO3)n(-c2nc3ccc(F)cc3s2)n1 | i |
| CC(=O)N1CCc2c(sc(NC(=O)c3ccc4c(c3)OCCO4)c2-c2nc3ccccc3s2)C1 | i |
| COc1ccc(CNC(=O)NCC2CCN(Cc3cccs3)CC2)cc1 | i |
